Cruzain inh noDet: qHTS Assay for Promiscuous and Specific Inhibitors of Cruzain (without detergent); purified cruzain, Z-FR-AMC fluorescence, no detergent; Cruzipain (Trypanosoma cruzi), P25779; hit rate 2.3% among 200,000; Potency, µM, for inactives: max response, negative = inhibition, actives largely listed as inhibitors;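 note: plate controls were enzyme without inhibitor for no effect and buffer without enzyme for full effect; nearly all actives have a fitted effect of over 40% in size; top concentration of the series not given in the record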
Target sequence (P25779 123-467 limits assumed): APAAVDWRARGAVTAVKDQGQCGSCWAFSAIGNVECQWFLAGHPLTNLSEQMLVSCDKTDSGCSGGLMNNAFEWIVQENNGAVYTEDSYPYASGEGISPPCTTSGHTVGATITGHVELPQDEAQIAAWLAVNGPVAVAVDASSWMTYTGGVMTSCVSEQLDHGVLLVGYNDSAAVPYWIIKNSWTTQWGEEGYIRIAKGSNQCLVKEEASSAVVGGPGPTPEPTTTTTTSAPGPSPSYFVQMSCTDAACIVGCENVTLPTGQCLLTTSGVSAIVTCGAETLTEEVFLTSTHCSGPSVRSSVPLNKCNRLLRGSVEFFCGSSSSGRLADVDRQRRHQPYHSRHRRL
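Purified cruzain at 1.5 nM, pre-incubated 15 min with compound at room temperature in 100 mM sodium acetate pH 5.5, 5 mM DTT, 0.00005% Triton X-100. Reaction started with 2 uM Z-FR-AMC; AMC fluorescence increase over 60 s gives rate.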
2A StopGo: High Throughput Screening for Foot and Mouth Disease Virus Antivirals; human cells with a luciferase reporter of 2A StopGo recoding; control for the full effect not named in the record; Potency, µM (highest dose often 57.9 µM), for inactives: top-dose signal change, negative = less light; hit rate 1.2% among 410,000; active = well fitted falling curve with a large enough effect; inconclusive = small, poorly fitted or top-dose-only effect; inactive = no such curve, though single readings can be large or run the other way; tested in HEK293T cells; note: % is set by controls: 0 for no effect and ±100 for the full control effect; nearly all actives have a fitted effect of over 45% in size; luciferase light after 4 h
Cruzain Triton: qHTS Assay for Promiscuous and Specific Inhibitors of Cruzain (with detergent). Cruzipain (Trypanosoma cruzi), P25779. Potency, µM, for the others: max response, negative = inhibition, usual class: inhibitors. purified cruzain, Z-FR-AMC fluorescence, 0.01% Triton. hit rate 0.43% among 200,000. AID 1478, 2009;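 note: plate controls were neutral wells for no effect and buffer without enzyme for full effect; nearly all actives have a fitted effect of over 40% in size; top concentration of the series not given in the record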
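Detergent-containing arm of a paired screen for aggregation-based inhibition: 0.01% Triton X-100 present. Cruzain at 1.5 nM cleaved 2 uM Z-FR-AMC at pH 5.5 with 5 mM DTT; AMC fluorescence gain over 60 s measured activity.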
LASV entry inh: qHTS for Inhibitors of binding or entry into cells for Lassa Virus; Lassa virus pseudotype entry inhibition, cell reporter; control for the full effect not named in the record; Potency, µM (top dose mostly 37.9 µM), inactives show at the top dose activity change, negative = inhibition, usual class: inhibitors; hit rate 1.2% among 300,000; active means well fitted inhibition curve with a large enough effect; inconclusive means small, poorly fitted or top-dose-only effect, or effect the other way; inactive means flat fitted curve, though single readings scatter; tested in HEK293 cells; note: % is set by controls: 0 for no effect and ±100 for the full control effect; nearly all actives have a fitted effect of over 50% in size; luciferase read-out
MARV entry inh: qHTS for inhibitors of binding or entry into cells for Marburg Virus. Potency, µM (series often up to 37.8 µM), for inactives: top-dose activity change, negative = inhibition, most hits filed as inhibitors. hit rate 1.8% among 300,000. Marburg virus pseudotyped entry inhibition, cell reporter; control for the full effect not named in the record; about a third of the inactives were read at about 46 µM; active = well fitted inhibition curve with a large enough effect; inconclusive = small, poorly fitted or top-dose-only effect, or effect the other way; inactive = flat fitted curve, though single readings scatter; tested in HEK293 cells; about a fifth of its hits are not listed in these tables; note: % is set by controls: 0 for no effect and ±100 for the full control effect; luciferase read-out
RE007 growth inh: qHTS Assay for Inhibitors of the HIV-1 protein Vpr; Potency, µM (titrated, usually from 92.2 µM), for the others: top-dose activity change, negative = less growth; hit rate 0.21% among 360,000; AID 651644, 2012; S. pombe RE007 Vpr strain, BacTiter-Glo ATP luminescence, 24 h; control for the full effect not named in the record; active = well fitted falling curve with a large enough effect; inconclusive = small, poorly fitted or top-dose-only effect; inactive = no such curve, though single readings can be large or run the other way;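 note: % is set by controls: 0 for no effect and ±100 for the full control effect; nearly all actives have a fitted effect of over 50% in size; the assay follows cell death caused by Vpr and the record does not say whether a fall means rescue or toxicity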
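Fission yeast RE007 carrying one integrated HIV-1 vpr copy, seeded at OD 0.01 in PMG+AL medium with 23 nL pinned compound. Grown 24 h at 30 degrees; viability read by BacTiter-Glo luminescence after 5 min.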
SARS PLpro yeast: qHTS of Yeast-based Assay for SARS-CoV PLP; S. cerevisiae expressing SARS-CoV PLpro, growth rescue; control for the full effect not named in the record; Potency, µM (highest dose often 32.9 µM), for the others: top-dose activity, positive = growth rescue; AID 485353, 2010; hit rate 0.19% among 330,000; active means well fitted rising curve with a large enough effect; inconclusive means small, poorly fitted or top-dose-only effect; inactive means no such curve, though single readings can be large or run the other way; note: 0% is about no effect; nearly all actives have a fitted effect of over 55% in size; growth read by luminescence after 48 h
NS1 inh: qHTS Assay for Inhibitors of Influenza NS1 Protein Function; S. cerevisiae slowed by influenza A NS1, growth recovery by OD600; Potency, µM (series often up to 46.1 µM), for inactives: at the top dose activity, positive = more growth; hit rate 0.4% among 270,000; AID 2326, 2010; active means well fitted rising curve with a large enough effect; inconclusive means small, poorly fitted or top-dose-only effect; inactive means no such curve, though single readings can be large or run the other way; note: nearly all actives have a fitted effect of over 50% in size
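Compounds were scored for reversing the slow growth caused by influenza A NS1 in S. cerevisiae, measured by optical density at 600 nm. Assay medium contained 2% galactose at pH 6.0; NS1-free yeast of the same strain were the positive control.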
* hit, by the source's call; ? = inconclusive; · = not tested or not shown; & = joins results of further samples; [ ] = another dose, or the depositor's remark. Unless noted, calls come from the whole dose curve; as a rule, active = well fitted curve in the direction sought with a large enough effect; inconclusive = small, poorly fitted or top-dose-only effect, or another doubt; inactive = no such curve, though single readings can be large; an effect the other way counts as inactive or inconclusive. Potency is the fitted concentration of half-maximal effect. Random draw from the library, and some 4.8% of all compounds hit somewhere here.

Compound	Cruzain inh noDet	2A StopGo	Cruzain Triton	LASV entry inh	MARV entry inh	RE007 growth inh	SARS PLpro yeast	NS1 inh
CC(NC(=O)Nc1ccccc1)C(c1cccs1)N1CCN(C)CC1 (stereo not drawn)	3%	-20%	-3.4%	·	·	-15%	2%	-1%
CCC1CCCCN1CCCNC(=O)Cn1cc2c(n1)-c1c(oc(C(=O)N3CCCC3)c1C)CC2 (stereo not drawn)	·	-14%	·	·	·	6%	10%	8%
CC(CNC(=O)CCCn1c(=O)c2cccn2c2cccnc21)c1ccccc1 (stereo not drawn)	-7%	15%&9%	-1.4%	4%[46.1 µM]	·	1%	·	·
Cc1ccc(C)c(N2CCN(C(=O)c3cc4cc5ccc(C)cc5nc4s3)CC2)c1	12%	20%	0.8%	13%[46.1 µM]	2%[46.1 µM]	·	·	·
Cn1c(NCc2ccco2)nc2ccccc21	-5%	51%[activator]	1.5%	2%	?	-12%	7%	-5%
CC(=O)N1CCc2c(sc3c2c(=O)n(-c2ccccc2)c(=O)n3CC(=O)Nc2cc(C)cc(C)c2)C1	20%	3%	2.0%	-1%[46.1 µM]	·	·	·	·
CCOC(=O)c1c(-c2cccc([N+](=O)[O-])c2)csc1NC(=O)C1CC1	-1%	?	-0.6%	?	?	11%	?	-50%
CC(=O)Nc1nnc(SCc2cc(=O)c3cccc(Cl)c3[nH]2)s1	3%	-23%	-0.7%	?	·	·	·	·
Cc1cc(C)cc(-n2c(O)c(C=Nc3ccc(N4CCOCC4)cc3)c(=O)[nH]c2=S)c1	?	-24%	-4.2%	0%	6%	1%	-6%	21%
CCCc1sc(C(=O)Nc2nnc(C3CC3)s2)cc1CC	·	3%	·	-29%	15%[46.1 µM]	7%	0%	·
CCOC(=O)c1cc(C(=O)NC(C)c2ccccc2)c(C)[nH]c1=O (stereo not drawn)	·	-1%	·	·	·	-12%	0%	4%
CC(C)c1ccc(NC(=O)C2CCN(S(=O)(=O)c3ccc4c(c3)C(C)(C)C(=O)N4C)CC2)cc1	·	?	·	·	·	-11%	3%	3%
COc1ccc(C(=O)Nc2ncccc2C)cc1S(=O)(=O)N1CCOCC1	·	-6%	·	-3%	8%	-4%	0%	·
O=C(CN1CCN(c2ccc(C(F)(F)F)cn2)CC1)NCc1ccc2c(c1)OCO2	·	-28%	·	?	2%	-10%	0%	-1%
Cc1cccc(N(C)S(=O)(=O)c2cc3c(cc2C)n(C)c(=O)c(=O)n3C)c1	·	?	·	·	·	-18%	7%	15%
Cc1cc(-c2n[nH]c(=S)n2-c2ccccc2C)cs1	0%	-12%	-2.8%	-1%	?	0%	18%	12%
COc1ccc([N+](=O)[O-])cc1/C=N/NC(=O)/C(=C\c1cccs1)NC(=O)c1ccccc1	?	-17%	-3.2%	-3%	-7%	16%	11%	-27%
O=C(COc1ccc(F)cc1)c1ccc2c(c1)CCCC2	·	27%	·	?	-18%	-13%	·	·
CCN(CC(=O)NC1CCCC1)S(=O)(=O)c1ccc(F)cc1	·	-7%	·	·	·	-6%	9%	6%
CCS(=O)(=O)N1Cc2ccccc2CC1C(=O)Nc1ccc(OC)cc1OC (stereo not drawn)	·	29%	·	-10%	-25%	-11%	4%	-1%
CC1CCCCC1NC(=O)COC(=O)c1ccc([N+](=O)[O-])o1 (stereo not drawn)	·	-12%	·	8%	2%[46.1 µM]	?	0%	·
O=C(Nc1c2c(nn1-c1ccccc1)CS(=O)C2)c1ccco1 (stereo not drawn)	·	0%	·	-1%	?	3%	7%	?
Cc1ccc(C(=O)O/N=C/c2ccc3c(c2)OCO3)cc1	?	11%	-3.2%	13%	?	4%	0%	-2%
CCN(CC)C(=O)c1ccccc1NC(=O)c1cccc(S(=O)(=O)N2CCC(C)CC2)c1	-7%	-6%	-0.6%	-13%[46.1 µM]	·	·	·	·
COc1ccc(NC(=S)NCCCN2CCN(C3CCCCC3)CC2)cc1	-4%	-7%	-0.5%	7%	8%	4%	9%	12%
CC(=O)c1ccc(NC(=O)NNS(=O)(=O)c2ccc([N+](=O)[O-])cc2)cc1	·	-1%	·	·	·	13%	?	-4%
CCN(CC)c1ccc(C2C(C(C)=O)C(=O)CC(C)(O)C2C(C)=O)cc1 (stereo not drawn)	·	-11%	·	?	11%	5%	·	·
COc1cccc(NC(=O)c2cc(-c3ccco3)nc3ccccc23)c1	·	-13%	·	?	6%[46.1 µM]	11%	·	·
O=S(=O)(c1ccc2c(c1)C(=NO)c1cc(S(=O)(=O)N3CCCCC3)ccc1-2)N1CCCCC1	?	?	3.2%	6.3µM*	?	11%	15%	-4%
CNC(=O)c1c(C)nc(SCC(=O)NCc2ccc(OC)cc2)c(C#N)c1-c1ccco1	-3%	53%[activator]	-1.6%	8%	?	15%	4%	10%
O=S(=O)(Nc1ncnc2sc3c(c12)CCC3)c1cc(F)ccc1F	·	15%	·	·	-3%	0%	-1%	2%
Cc1cc([N+](=O)[O-])nn1CCCC(=O)Nc1sc2c(c1C(N)=O)CCCC2	10%	1%	-14%	24%	6%	16%	13%	7%
CN(c1ccc(C(=O)N2CCCCC2)cc1)S(C)(=O)=O	-2%	-8%	0.8%	-19%	1%	-11%	8%	14µM*
O=C(Nc1ccc(F)cc1)Nc1nnc(-c2ccccc2)o1	·	-3%	·	3%[46.1 µM]	?	7%	0%	0%
CCOc1ccc2nc(/N=C/c3nc(-c4ccccc4)oc3O)sc2c1	?	11%	-3.7%	13%	-2%	-1%	6%	1%
C=CCn1c(SCCOc2ccccc2)nnc1C(C)NC(=O)c1ccccc1 (stereo not drawn)	2%	-22%	-1.7%	-2%	2%	14%[3.69 µM]	3%	-5%
O=C(NCc1ccc(F)cc1)c1ccc(CS(=O)(=O)c2ccc(Br)cc2)o1	·	?	·	·	·	4%	2%	-6%
N#CCC(=O)NNC(=S)Nc1ccccc1C(F)(F)F	·	?	·	-1%	6%[46.1 µM]	14%	3%	7%
CC1CCN(S(=O)(=O)c2ccc3c(c2)CCN3C(=O)CCC(=O)O)CC1	3%	-15%	5.3%	1%	?	-8%	-2%	3%
CC1=Nc2cc(C(=O)NCc3ccccc3Cl)ccc2Sc2c(C)ccc(C)c21	32µM*	-19%	-4.0%	?	?	·	·	·
CCOc1ccc(NS(=O)(=O)c2cc(NC(=O)CCC(=O)c3cccs3)ccc2Cl)cc1	·	18%	·	?	?	-5%	0%	1%
CC(C)CC(=O)NC(=S)Nc1ccc(S(=O)(=O)N2CCN(C)CC2)cc1	-2%	2%	-1.8%	0%	-3%	1%	16%	23%
CCN(CC)C(=O)CSc1nnc(-c2ccccc2)n1-c1ccccc1	2%	-10%	5.2%	-13%	0%	4%	?	3%
CC1CCCN(CCCNC(=O)c2cc3c(s2)-c2ccccc2OC3)C1 (stereo not drawn)	·	-6%	·	?	3.2µM*	-16%	·	-4%
COc1ccccc1CNC(=O)C(=O)NCC1OCCN1S(=O)(=O)c1cccs1 (stereo not drawn)	·	-6%	·	·	·	-13%	3%	-6%
O=C(NC(=S)NC1CCSC1=O)c1ccccc1Cl (stereo not drawn)	2%	24%	-1.4%	0%	18%	0%	-1%	22%
Cc1ccc(C(CC(=O)NCc2ccco2)c2ccc(OC(C)C)cc2)cc1 (stereo not drawn)	·	-17%	·	-22%	-17%&-17%	-11%	-2%	-40%
C=CCSc1nc(Oc2ccccc2)c2sccc2n1	0%	0%	-3.8%	20%	-24%	-1%	-5%	-19%
Cc1cccc(N(CC(=O)Nc2ccc(F)cc2)S(C)(=O)=O)c1	0%	13%	-0.4%	-18%	-3%	9%	-4%	-1%
O=C(Nc1ncc(S(=O)(=O)c2ccc([N+](=O)[O-])cc2)s1)c1ccc2ccccc2c1	20µM*	?	0.4%	8%	-17%	-7%	-12%	27%
O=C(NC1=NCCS1)c1cccc(S(=O)(=O)N2CCCCC2)c1	3%	·	-1.5%	·	·	·	20%	-2%
C=CCNC(=O)c1ccccc1NS(=O)(=O)c1ccccc1	-9%	-4%	-1.4%	8%	-8%[46.1 µM]	-6%	-3%	11%
OC(COc1ccc(OCC(O)CN2CCCCCC2)cc1)CN1CCCCCC1 (stereo not drawn)	-10%	-19%	1.7%	?	11µM*	-6%	-4%	-11%
Cc1cn2c(=O)cc(COc3ccc(C(C)(C)C)cc3)nc2s1	-12%	-11%	-1.4%	17%[46.1 µM]	-8%[46.1 µM]	·	·	·
Cc1cccc(Cn2c(-c3ccccc3)nc3ccccc32)c1	-5%	?	-7.7%	11%[46.1 µM]	23%[46.1 µM]	·	·	·
O=C(N/C=N/OCc1ccc(Cl)cc1Cl)NOCc1ncc(C(F)(F)F)cc1Cl	14%	-19%	-6.4%	?	?	-12%	-15%	15%
O=C(N/N=C/c1ccc(F)cc1)c1ccc(Br)cc1	-3%	87%[activator]	3.9%	13%	17%	11%	2%	-1%
COc1ccc(CC(=O)Nc2cccnc2)cc1	·	-11%	·	25%	-5%	-4%	-11%	9%
CCOC(=O)/C=c1\s/c(=C\c2ccccc2C)c(=O)n1CC(=O)NCc1ccc2c(c1)OCO2	?	19%	-2.9%	-20%	-27%	7%	-4%	0%

High-throughput results: PubChem, National Center for Advancing Translational Sciences (NCATS)
